Screening data from PubChem BioAssay.
LANA-H2B inh = blocks KSHV LANA binding to histone H2A/H2B; actives 0.6% (n = 320,000); inhibition, % (concentration not given with the values); AID 2629; cell-free LANA-H2A/H2B peptide, fluorescence polarization; in the data active means inhibition mostly above about 10%, no sharp cut-off; inactive means mostly below about 6.7%;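 further: stock transfer was 7.5 nL into about 10 µL; 0% = median of vehicle wells and 100% = median of positive control wells; one replicate is shown; the record names a cut of 25% in any replicate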
Beta apoptosis = blocks beta cell apoptosis. INS-1E cytokine-induced death, ATP luminescence, 48 h; percent of positive-control rescue, neutral wells zero. protection from apoptosis, % (no concentration beside the values). actives 0.8% (n = 300,000);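 active means all replicates at 75% or more, or half of them and the mean; inconclusive means half reach 75% but not the mean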;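 further: 0% = cytokine-treated negative control wells and 100% = positive control rescue; higher means more ATP so stronger rescue from cytokine killing; wells of about 40 µL received 100 nL stock; the first replicate is given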
Beta2AR agonist = agonists of human beta-2 adrenergic receptor inducing internalization | Am2.2-beta2AR cells, FAP receptor internalization, flow cytometry; reference of the scale not given here | response, % (concentration not given with the values) | actives 0.43% (n = 340,000);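 active means response above a set limit, near 3 SD of response in nonfluorescent compounds, cut at about 42% in these data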;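 further: stock transfer was 100 nL into about 11 µL; a reference agonist was the positive control; negative values mostly stem from fluorescent compounds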
Target sequence (P07550 whole entry, looked up): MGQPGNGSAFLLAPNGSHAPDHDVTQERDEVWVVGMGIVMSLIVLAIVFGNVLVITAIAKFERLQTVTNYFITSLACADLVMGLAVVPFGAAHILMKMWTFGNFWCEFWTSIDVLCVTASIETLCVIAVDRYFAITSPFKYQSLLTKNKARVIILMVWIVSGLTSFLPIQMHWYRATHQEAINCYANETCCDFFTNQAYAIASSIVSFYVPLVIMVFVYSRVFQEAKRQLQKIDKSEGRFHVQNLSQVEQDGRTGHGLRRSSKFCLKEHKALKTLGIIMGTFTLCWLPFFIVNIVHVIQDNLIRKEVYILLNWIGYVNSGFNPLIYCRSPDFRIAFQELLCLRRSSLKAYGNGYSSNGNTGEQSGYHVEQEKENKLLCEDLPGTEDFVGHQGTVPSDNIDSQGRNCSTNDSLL
Ecoli rRNA inh = selective bacterial rRNA inhibition in E. coli. E. coli WT GFP vs humanized-ribosome RFP mutants, fluorescence, 24 h; hits give low values; DMSO median 0, no signal -100. GFP signal change (wild-type ribosome), % (test concentration not listed). actives 1.6% (n = 350,000);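 active means significant combined selectivity score with lowered wild-type GFP, culture density cut under 30%, mutant RFP and density less affected; inactive means any of these conditions unmet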; further: one replicate is shown; some compounds called inactive have numbers as strong as hits
T cruzi repl = blocks replication of Trypanosoma cruzi | T. cruzi beta-gal in NIH3T3, luminescence, 90 h | inhibition, % (no concentration beside the values) | actives 1.4% (n = 300,000);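 active means mean inhibition across valid replicates above about 55%, limit read from the data; inconclusive means mean below that limit but half or more replicates reach it; inactive means mean below it, under half of replicates reach it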;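 further: signal also drops with host cell toxicity which is not excluded here; 0% = plate median of DMSO wells and 100% = zero luminescence signal; higher percent means less beta-gal luminescence so fewer parasites; stock transfer was 50 nL into about 50 µL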
ALR inh = blocks human ALR sulfhydryl oxidase activity | P55789 | inhibition, % (concentration not given with the values) | actives 3.8% (n = 290,000) | AID 485317 | purified ALR, DTT oxidation, H2O2 HRP-luminol luminescence;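 active means mean and each replicate at 75% or more; inconclusive means only one of the two met; inactive means neither met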;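 further: stock transfer was 7.5 nL into about 7.5 µL; 0% = neutral wells and 100% = wells with inactivated enzyme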
Target sequence (P55789 whole entry, looked up): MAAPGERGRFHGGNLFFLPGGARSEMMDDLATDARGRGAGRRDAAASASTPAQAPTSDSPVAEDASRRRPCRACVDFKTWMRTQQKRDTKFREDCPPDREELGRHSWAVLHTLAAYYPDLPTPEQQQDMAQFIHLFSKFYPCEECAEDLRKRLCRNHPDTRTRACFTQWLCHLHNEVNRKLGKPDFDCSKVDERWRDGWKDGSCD
Calb FLC = C. albicans growth modulation with fluconazole; C. albicans CaCi-2 (fluconazole-resistant clinical isolate) + fluconazole, Alamar Blue growth, 48 h; growth inhibition, % (concentration not given with the values); actives 0.57% (n = 300,000);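 active means most replicates above 75%; inconclusive means exactly half above 75%; inactive means most below 75%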;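 further: all wells also contain fluconazole at 8 µg/ml as a sub-toxic cotreatment; 0% = median of DMSO wells and 100% = median of geldanamycin control wells; wells of about 8 µL received 7.5 nL stock; the first replicate is given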
Bfl-1 A1 inh = inhibitors of the anti-apoptotic protein A1, read as caspase activation. MEF A1-2A-BIM cells, Caspase-Glo 3/7 luminescence, 3 h; percent of clofoctol response, vehicle zero. actives 0.066% (n = 330,000). AID 2462. caspase activation, % (concentration not given with the values);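 active means over half of replicate activation scores above 10%, or exactly half above 10 with the replicate mean above 10; inconclusive means replicate mean below 10 yet half the replicates above 10; inactive means over half of replicates below 10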;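 further: wells of about 30 µL received 50 nL stock; many hits fall short of the cut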
Ecoli rRNA inh OD600 = recorded beside Ecoli rRNA inh, whose call it bears; OD600 change, %; measured here: OD600 growth;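 optical density of the mix in the first replicate; 0 = DMSO median and -100 = no signal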
Ecoli rRNA inh RFP = recorded beside Ecoli rRNA inh, whose call it bears; RFP signal change, %; measured here: RFP humanized mutant strains;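 first replicate; 0 = DMSO median and -100 = no signal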
* = called active by the depositor; ? = inconclusive; . = not tested or not shown; & = joins results of further samples. An excerpt. The share of hits here may be higher or lower than overall.

SMILES	LANA-H2B inh	Beta apoptosis	Beta2AR agonist	Ecoli rRNA inh	Ecoli rRNA inh OD600	Ecoli rRNA inh RFP	T cruzi repl	ALR inh	Calb FLC	Bfl-1 A1 inh
COc1ccc(-c2cc(C(F)(F)F)nc(N3CCN(C)CC3)n2)cc1	-0.8	.	8	.	.	.	33	-4	-15	-1.1
COc1cc2c(cc1OC)CN(CC(=O)NC(=O)NCc1ccco1)CC2	-2.2	-4	5	-3	4	-2.5	-5	-9	2	0.7
CCCCOc1ccc(C2C3CN(C(=O)OCC)CC=C3C(C#N)=C(N)C2(C#N)C#N)cc1OC (stereo unspecified)	2.9	7	9	0	-4	7.3	10	3	28	-0.4
Cc1cc(Cl)ccc1C(=O)C1CCCN(C(=O)c2cnsn2)C1 (stereo unspecified)	3.5	-3	0	-14	-4	-0.8	2	-5	11	0.4
COc1ccccc1CN(C)CC(=O)NC(=O)NC1CCCCC1	-1.2	2	-14	.	.	.	.	1	.	1.0
Cc1ccccc1-n1ccnc1SCC(=O)NCc1ccco1	-6.1	-7	-2	6	5	-1.2	-11	17	-33	-0.3
COc1cccc(C(=O)NCCS(=O)(=O)N2CCCC2)c1	-1.8	-8	-5	-3	-1	-2.6	-13	5	-3	-0.9
O=C(c1n[nH]c2ccccc12)N1CCCCC1	-0.2	2	-3	8	13	5.8	-11	30	-3	0.2
O=C(CCc1ccncc1)N1CCCC(Nc2ccc(F)c(F)c2)C1 (stereo unspecified)	0.9	-7	-1	5	4	-2.6	26	95*	-1	0.1
CC(C)OC(=O)CC(=O)CSc1nc2c(cc1C#N)CCCCC2	0.4	.	-4	.	.	.	6	-5	17	-3.5
c1ccc(OCc2nc(-c3ccccc3)no2)cc1	0.0	-1	0	.	.	.	-15	0	.	1.4
Cc1c(NC(=O)COc2cccc3c2OC(C)(C)C3)c(=O)n(-c2ccccc2)n1C	0.6	-5	2	7	6	-0.5	-12	-6	-15	0.1
Cc1cc(Cl)c(S(=O)(=O)N2CCCCCC2)cc1OCC(=O)NC1CCCCC1	-1.5	62	-1	.	.	.	28	0	-12	-1.3
O=C(c1c(F)cccc1F)N(C1CCCCC1)C1CCCCC1	1.2	.	2	-26	-38	-2.4	32	-1	3	0.2
O=c1[nH][nH]c(-c2ccccc2)c1C=Nc1ccc(OC(F)(F)F)cc1	-1.7	-7	-2	6	3	1.5	7	23	-31	-0.9
Cc1cccc(C(=O)NC(=O)Nc2c(C)cc(C)nc2C)c1	-3.1	-4	1	-2	6	-4.4	-9	-8	-3	-0.8
O=Cc1c(NCc2ccc(Cl)cc2)c2ccccc2[nH]c1=O	-3.6	-2	-7	-6	-4	1.2	-10	-16	-30	-0.9
COc1ccc(C2=NOC(C(=O)Nc3c(C)n(C)n(-c4ccccc4)c3=O)C2)cc1 (stereo unspecified)	-3.3	-3	-7	6	13	1.3	3	-2	-11	0.2
COc1ccc(NC(=O)CCN2CCN(S(=O)(=O)c3ccc(Cl)cc3)CC2)cc1	1.3	4	-8	-9	-9	1.1	-8	-8	-21	0.2
Cc1ccccc1Nc1sc(C(=O)Nc2cccc(Cl)c2)c(N)c1C(N)=O	.	.	-1	2	4	-3.6	3	.	-12	.
CCOc1ccc(CCNC(=O)COC(=O)c2sccc2C)cc1OCC	7.3	-3	3	3	7	-2.3	12	-4	-1	0.7
O=C(COC(=O)c1ccc(Br)o1)NCc1ccc(F)cc1	5.2	-5	9	0	0	3.4	.	-3	.	0.2
C=CCn1cc(C(=O)NCc2cccnc2)c(=O)c2cc(S(=O)(=O)N(CC)CC)ccc21	2.2	8	-12	4	3	-0.8	11	.	-4	0.9
COc1ccc(C(CNC(=O)COc2cccc(C)c2)N2CCCC2)cc1 (stereo unspecified)	-2.5	-10	6	6	3	-0.3	.	-2	.	0.5
O=C(N/N=C/c1cccnc1)C1CCCCC1	0.5	-2	-3	-5	-7	0.2	-6	-15	-9	0.1
Cc1noc(C)c1COc1cccc(C(=O)OC(C)C(=O)Nc2c(C)n(C)n(-c3ccccc3)c2=O)c1 (stereo unspecified)	1.4	-7	-9	8	2	2.1	.	-10	-7	-0.1
CCOc1ccc(CCNC(=O)COC(=O)c2c(C)nn(-c3ccccc3)c2C)cc1OCC	4.0	-1	-2	.	.	.	21	0	-5	-0.2
CCN1CCN(c2cc(C)c3cc(NC(=O)CCC(=O)N4CCN(c5ccccc5OC)CC4)ccc3n2)CC1	-0.1	4	20	0	-3	-1.8	30	48	-2	-0.4
CCCC(=O)N=C1SC2CS(=O)(=O)CC2N1c1ccc(C(C)=O)cc1 (stereo unspecified)	-1.4	1	-2	.	.	.	-11	-1	1	-0.3
CCOc1ccc(N2CC(C(=O)N3CCc4ccccc43)CC2=O)cc1 (stereo unspecified)	11	-1	2	9	17	3.9	1	-2	-7	-1.6
CCN(CC)CCNC(=O)Cn1c(-c2ccccn2)nc2ccccc21	2.5	-8	5	14	14	-8.1	7	-8	-15	-0.7
COc1ccc(C)cc1NC(=O)COC(=O)Cc1ccc(-c2ccccc2)cc1	-2.5	-3	-1	.	.	.	-11	-7	0	0.2
O=C1COc2cc(ccc2[N+](=O)[O-])Oc2ccc(cc2Cl)C(=O)CCCCO1	1.9	-1	1	2	6	-3.1	-9	.	-7	0.3
COc1ccc(-c2c(-c3cc(OC)cc(OC)c3)n(C)c3ccc(-c4ccc(OC)c(F)c4)cc23)cc1	0.1	9	-4	12	9	-2.8	.	-2	.	-1.2
COCCNC(=O)Cn1cnc2c(cnn2-c2ccc(C)cc2)c1=O	2.9	-6	-3	4	3	-0.1	-7	0	-7	1.3
CCN=C(NCC)SC1CC(=O)N(c2ccc(OCC)cc2)C1=O (stereo unspecified)	4.9	-1	3	4	5	0.1	-3	.	-4	0.7

Pulled by compound from the list above:
SMILES	LANA-H2B inh	Beta apoptosis	Beta2AR agonist	Ecoli rRNA inh	Ecoli rRNA inh OD600	Ecoli rRNA inh RFP	T cruzi repl	ALR inh	Calb FLC	Bfl-1 A1 inh
COc1ccccc1CN(C)CC(=O)NC(=O)NC1CCCCC1	-1.2	2	-14	.	.	.	.	1	.	1.0
Cc1cccc(C(=O)NC(=O)Nc2c(C)cc(C)nc2C)c1	-3.1	-4	1	-2	6	-4.4	-9	-8	-3	-0.8

More compounds
SMILES	LANA-H2B inh	Beta apoptosis	Beta2AR agonist	Ecoli rRNA inh	Ecoli rRNA inh OD600	Ecoli rRNA inh RFP	T cruzi repl	ALR inh	Calb FLC	Bfl-1 A1 inh
CCOc1cc(NC(=S)Nc2ccccc2OC)c(OCC)cc1NC(=O)c1ccccc1C	-3.0	11	0	.	.	.	6	-11	14	1.4
COc1nc(-c2ccccc2)cc(-c2ccccc2)n1	-2.5	.	5	.	.	.	11	.	12	-0.8
O=C(CN1C(=O)NC2(CCCC2)C1=O)OCc1ccc(Cl)c(Cl)c1	1.0	-6	0	-3	-6	-1.2	-15	-22	-2	-0.5
COc1c(C(CC(C)C)OC(C)=O)ccc2c1C(=O)OCc1cc(C)cc(O)c1O2 (stereo unspecified)	7.7	.	13	-15	-56	-5.1	6	-57	3	-1.0
NS(=O)(=O)c1ccc(-c2ccc(/C=N/Nc3ccc(C(=O)O)cc3)o2)cc1	-8.2	-1	-1	-19	-16	-4.3	-10	67	-3	0.5
COCCCNC(=O)c1ccccc1C(F)(F)F	-8.6	-4	-6	12	9	2.8	-5	-6	10	0.3
CC(C)(C)C(=O)/C=C/Nc1ccccc1O	-0.2	-14	-1	.	.	.	1	99*	-7	1.0
COC(=O)C(CC(C)C)NC(=O)/C=C/c1ccccc1Cl (stereo unspecified)	-3.0	1	4	5	1	1.6	12	-29	22	1.3
O=C(c1ccc(N2CCN(C(=O)c3ccccc3)CC2)cc1)c1cccc(F)c1	-3.6	3	-14	-21	-36	0.0	21	-3	-11	-0.6
CC(C)C(NC(=O)c1ccccc1F)C(=O)NCc1ccc(F)cc1 (stereo unspecified)	4.1	-3	1	3	6	1.1	6	-5	-1	-0.9
O=C(CCNC(=O)c1ccc(Br)cc1)NNC(=O)c1ccccc1	1.3	-7	-4	12	11	0.2	.	-10	.	1.2
CC1(C)CC(/C=C/c2ccccc2)=Nc2ccccc2N1	-0.5	-7	4	5	7	10	13	33	-7	-0.7
Cc1c(NC(=S)NC(=O)c2ccc(Br)o2)c(=O)n(-c2ccccc2)n1C	-2.1	3	3	-2	-6	-2.6	-10	12	-13	0.2
Cc1ccc(NC(=O)C(C)c2cccc(C(=O)c3ccccc3)c2)cc1 (stereo unspecified)	1.4	1	-2	.	.	.	-15	-3	13	0.2
COC(=O)c1cc(=O)nc2sc3cc(OC)ccc3n12	0.9	2	4	.	.	.	-12	0	5	-0.4
CN(c1ccccc1)S(=O)(=O)c1ccc(Cl)c(C(=O)NCC(c2ccco2)N2CCCC2)c1 (stereo unspecified)	1.8	-1	-11	4	-4	-1.4	.	-4	.	-1.2
O=C(c1ccccc1C(F)(F)F)N1CCN(S(=O)(=O)c2ccccc2)CC1	0.8	-5	-5	.	.	.	0	-3	?	0.7
CCCOC(=O)CSc1nnc(-c2ccccc2Cl)o1	1.0	2	5	.	.	.	-10	-1	-1	0.7
CN(C)CCCN1c2ccc([N+](=O)[O-])cc2CCc2cc([N+](=O)[O-])ccc21	-1.8	11	20	-11	4	8.9	39	-4	9	-0.2
CSCCC(NS(=O)(=O)c1ccccc1F)C(=O)N1CC=C(c2ccccc2)CC1 (stereo unspecified)	1.1	0	2	-1	6	-1.9	14	-3	-14	-0.4
c1ccc(CCc2nn3c(Cc4ccccc4)nnc3s2)cc1	3.3	-1	-2	.	.	.	-11	-6	27	-0.7
O=c1c2ccccc2nnn1CSc1nnc(C2COc3ccccc3O2)n1-c1ccccc1 (stereo unspecified)	2.2	-5	2	.	.	.	4	-14	2	0.4
O=C(NC1CCCCCC1)c1cccc(COCC(F)(F)F)c1	-2.7	-3	-8	.	.	.	-4	0	17	-3.4
CC1(C)SC(=S)N(/N=C/c2ccccc2)C1N(O)C(=O)Nc1ccc([N+](=O)[O-])cc1 (stereo unspecified)	0.7	9	3	.	.	.	20	2	-18	0.8
CC(C)c1ccc(OCC(O)CN2CCN(c3ccccc3)CC2)cc1 (stereo unspecified)	9.4	-2	-13&10	-39&-16	-55&-42	-6.8&12	16	5	-20	1.4
Nc1c(-c2cccc(Cl)c2)cnc2c(-c3ccccc3)cnn12	1.7	-6	35	16	14	-3.6	-5	-6	-9	0.7
O=C(NCCc1c[nH]c2ccccc12)C(=O)NCC1CCCO1 (stereo unspecified)	2.2	0	-3	5	7	-4.4	-9	1	5	-0.1
Cc1ccccc1NC(=O)Cn1c([N+](=O)[O-])cnc1C	1.9	.	-3	.	.	.	-14	0	25	0.8
CCOc1[nH]n(-c2ccc(Cl)cc2)c(=O)c1C=NCC(=O)OC	-10	-11	-2	10	-1	-0.2	12	-29	0	?
CN1/C(=C\C(=O)Nc2ccc(Br)cc2)C(C)(C)c2ccccc21	1.9	-17	-8	-42	-70	-6.7	2	-3	0	0.3
O=C(Nc1ccccc1N1CCOCC1)c1ccc(Cl)c(S(=O)(=O)N2CCCC2)c1	-5.7	7	9	.	.	.	.	-3	.	-0.3
